Source: PubChem (National Center for Advancing Translational Sciences (NCATS))
VACV mCherry inh: qHTS for Stage-Specific Inhibitors of Vaccinia Orthopoxvirus: mCherry Reporter Primary qHTS. 310,000 tested, 0.63% active. Vaccinia virus mCherry reporter infection, fluorescence; about a quarter of the inactives have no number. Potency, µM (series often up to 36.5 µM), inactives show at the highest dose activity change, negative = inhibition, usual class: inhibitors. AID 720579, 2013; active = well fitted inhibition curve with a large enough effect; inconclusive = small, poorly fitted or top-dose-only effect; inactive = no such curve, though single readings can be large or run the other way; tested in A549 cells; note: nearly all actives have a fitted effect of over 35% in size; inactives centre near -10
Vaccinia Venus: qHTS for Stage-Specific Inhibitors of Vaccinia Orthopoxvirus: Venus Reporter Primary qHTS | Vaccinia virus Venus reporter expression, fluorescence | Potency, µM (series often up to 36.5 µM), for inactives: at the highest dose activity change, negative = inhibition, usual class: inhibitors | 330,000 tested, 0.46% active; active means well fitted inhibition curve with a large enough effect; inconclusive means small, poorly fitted or top-dose-only effect; inactive means no such curve, though single readings can be large or run the other way; tested in A549 cells; note: nearly all actives have a fitted effect of over 30% in size; inactives centre near -10
The depositor's hits bear a star; i = inactive; ? = inconclusive; nt = no result given; & = joins results of further samples; [ ] = another dose, or the depositor's remark. % is set by controls: 0 for no effect and ±100 for the full control effect; potency is the fitted concentration of half-maximal effect.

Each structure is followed by: VACV mCherry inh	Vaccinia Venus
N/C(=N\N=Cc1ccc2c(c1)OCO2)NN=Cc1ccc2c(c1)OCO2
 : -12%	-18%
COc1ccc(/C(O)=C2/C(=O)C(=O)N(Cc3cccnc3)C2c2ccccn2)cc1 (stereo not given)
 : i	-5%
Cc1cc([N+](=O)[O-])ccc1-c1ccc(/C=N/NC(=O)Cc2ccccc2)o1
 : -5%	-14%
CCCS(=O)(=O)N1CCCC(C(=O)NCCCN(CC)c2cccc(C)c2)C1 (stereo not given)
 : nt	-22%
S=C(Nc1ccccc1Cl)N(Cc1cccnc1)Cc1ccco1
 : -20%	-7%
COc1ccc(NC(=O)c2ccc(-c3nc(CSc4ccccc4)c(C)o3)cc2)cc1OC
 : -29%	-27%
COc1ccccc1N1CCN(C(=O)C(=O)c2cn(CC(=O)N3CCCCCC3)c3ccccc23)CC1
 : -11%	-5%
CN1CCN(NC(=O)Nc2ccc(F)cc2)CC1
 : i	-3%
Cc1ccc(C)c(C(O)c2ncc(-c3ccccc3Cl)[nH]2)c1 (stereo not given)
 : i	-16%
CC(C)c1nc(C(N)=O)c2[nH]c(=O)n(-c3ccc(F)cc3)c2n1
 : 7%	1%
CC(=O)Nc1ccc(NC(=O)CCc2c(C)nc3c(c(C)nn3-c3ccccc3)c2C)cc1
 : -14%	-13%
CN(C)c1ccc(Nc2nc3ccccc3n3nnnc23)cc1
 : -8%[7.34 µM]	-9%[7.34 µM]
COc1ccc2c(c1OC)C(=O)N1C2SC(C)(C)[C@H]1C(=O)NC1CCCC1 (stereo not given in full)
 : -8%	-12%
CCOc1ccc(S(=O)(=O)N(C)c2ccc(OCC(=O)NCc3ccc(C(=O)OC)cc3)cc2)cc1
 : -23%	4%
CN(CC(=O)O/N=C(\N)c1ccccn1)S(=O)(=O)c1cc(Cl)ccc1Cl
 : -26%	-16%
O=S1(=O)CCN(Cc2ccc(F)cc2)CC1
 : -13%	3%
COC(=O)C1=C[C@@H](C(=O)OC)[C@@H]2C3=C(C(=O)[C@@]2(C)NC(=O)c2ccccc2)[C@H](c2ccccc2)[C@@H]2C(=O)NC(=O)[C@@H]2[C@@H]3C1
 : i	-2%
COc1cccc(CN(C)C(=O)c2cccc(S(=O)(=O)N3CCN(c4ccc(F)cc4)CC3)c2)c1OC
 : ?	-15%
CCCCc1nc(NCc2ccccc2)c(C#N)c2c1COC(C)(C)C2
 : nt	-13%
CCOC(=O)C1=C(CS(=O)(=O)c2ccc(C)c(C)c2)NC(=O)NC1c1ccccc1OCC (stereo not given)
 : -20%	-11%
CC(=O)c1nc(N2C(=O)CC(Cc3ccc(C)cc3)C2=O)sc1C (stereo not given)
 : -5%	-2%
CCS(=O)(=O)N1CCC(C(=O)O)CC1
 : -13%	-13%
Cc1ccc(C)c(N2CCN(C(=O)CCCCn3c(=O)[nH]c4ccccc4c3=O)CC2)c1
 : -26%	-25%
COc1ccc(S(=O)(=O)N2CC(O)CC2C(=O)Nc2cccnc2)cc1 (stereo not given)
 : i	-5%
Cc1ccc(CNC(=O)c2cnc(-c3ccccn3)nc2C(F)(F)F)cc1
 : -22%	-17%
CSc1cccc(NC(=O)CCCOc2ccc(Cl)cc2Cl)c1
 : -13%	-14%
NC(=O)c1cccc(-c2csc(C(O)c3ccccc3)n2)c1 (stereo not given)
 : i	-3%
O=C(Nc1ccccc1F)c1ccc(CNS(=O)(=O)c2cccc(C(F)(F)F)c2)cc1
 : nt	-14%
O=C(COC(=O)c1ccccc1Br)NCCC1=CCCCC1
 : i	-13%
CCN1CCN(c2ccc(S(=O)(=O)N3CCCCC3)cc2NC(=O)COc2ccc(F)cc2Cl)CC1
 : -14%	?

Record cards (already shown). Values in the order: VACV mCherry inh	Vaccinia Venus
CCS(=O)(=O)N1CCC(C(=O)O)CC1 is listed as -13%	-13%
O=S1(=O)CCN(Cc2ccc(F)cc2)CC1 is listed as -13%	3%
CCOc1ccc(S(=O)(=O)N(C)c2ccc(OCC(=O)NCc3ccc(C(=O)OC)cc3)cc2)cc1 is listed as -23%	4%

(further entries)
Each structure is followed by: VACV mCherry inh	Vaccinia Venus
Cc1ccc(S(=O)(=O)N2CCOCC2)cc1C(=O)NCC1CCCO1 (stereo not given)
 : -10%	-15%
Cc1cc(C)c(NC(=O)CN2C(=O)NC3(CCOc4ccccc43)C2=O)c(C)c1 (stereo not given)
 : -24%	-16%
CC(NC(=O)CCSCc1ccccc1F)c1ccccc1 (stereo not given)
 : -20%&-12%	-10%&-13%
O=C(Nc1ccc(CN2CCCCC2)cc1)c1ccc(Br)o1
 : nt	-15%
CCCc1nn(C)c2c1C(c1ccncc1)C(C#N)=C(N)O2 (stereo not given)
 : nt	-6%
c1ccc(-c2nc3c4ccccc4ccn3c2CC2CCCCC2)cc1
 : -2%	2%
CC(=O)NC[C@H]1O[C@@H](n2ccc(N)nc2=O)[C@H](O)[C@@H]1O
 : i	-9%
CN1C(=O)c2cccc3c(S(=O)(=O)Nc4ccc(O)c(C(=O)O)c4)ccc1c23
 : -18%	-18%
CC(C)CC(=O)N1CCC(N2CCN(c3ccccc3)CC2)CC1
 : i	-9%
CCC(=O)Oc1ccc(/C=C(\C#N)c2nc3ccccc3[nH]2)cc1OC
 : ?	21%
Clc1ccc(/C=N/N2CCN(Cc3ccccc3Cl)CC2)cc1
 : -18%	-13%
Cc1ccc2cc(F)c(F)c(F)c2n1
 : 20%	8%
OCCCC1CCCCN1Cc1nc(Cc2ccccc2Cl)no1 (stereo not given)
 : -7%	-10%
COc1cccc(S(=O)(=O)N(C)C[C@H]2OCc3cn(nn3)CCCC(=O)N([C@@H](C)CO)C[C@@H]2C)c1
 : 18%	-2%
CCOc1ccc(S(=O)(=O)NCCC(=O)NCCc2ccc(OCC)c(OCC)c2)cc1
 : -13%	-26%
O=C(NCC(c1ccco1)N1CCN(c2ccccc2)CC1)C1CCCCC1 (stereo not given)
 : i	-10%
Cc1ccc2c(CC(=O)Nc3cccc(C(F)(F)F)c3)coc2c1
 : -6%	-8%
O=C(O)CC(CC(=O)O)c1ccc2c(c1)OCO2
 : -5%	-7%
CC(=O)N1CCC2(CC1)OC(=O)C(C)=C2C(=O)Nc1ccccc1C(F)(F)F
 : -3%	-5%
CC(C)C(OC(=O)c1cc2sccc2n1C)C(=O)NCC1CCCO1 (stereo not given)
 : ?	-15%
Cc1ccc(NCc2n[nH]c(=S)n2-c2cccc(Cl)c2)cc1
 : -16%	-7%
O=C(O)CCS(=O)(=O)c1cccc2cccnc12
 : -10%	-3%
COc1ccc(OC)c(NS(=O)(=O)c2ccc(-c3cc(C)no3)s2)c1
 : -26%	-29%
COC(=O)c1c(NC(=O)c2ccco2)sc(C(=O)N2CCCC2)c1C
 : -11%	-3%
O=S1(=O)N[C@@H](CC2CCCCC2)COc2cc(Br)ccc21
 : i	-28%
CC(C)(O)C#Cc1ccc(CNC[C@H]2O[C@@H](n3cnc(C(N)=O)n3)[C@H](O)[C@@H]2O)s1
 : i	-15%
O=C(NCc1ccc(Cl)cc1)C1CCN(C(=O)c2ccc(Cl)cc2)CC1
 : -1%	-25%
COc1ccc2oc(=O)cc(CN(C)Cc3ccccc3)c2c1
 : i	-16%
CCc1nnc(NS(=O)(=O)c2ccccc2)s1
 : -1%	-4%
CC1(C)OC(=O)CC1C(=O)NCc1ccccc1 (stereo not given)
 : -14%	-13%
CCOc1ccc(NC(=O)CC2C(=O)N(c3ccc(OCC)cc3)C(=S)N2C2CC2)cc1 (stereo not given)
 : -18%	?
O=C(c1ccc(F)cc1)C(C(=O)N1CCCCC1)n1ccccc1=O (stereo not given)
 : i	-3%
O=C(Nc1cc(S(=O)(=O)N2CCCCC2)ccc1Cl)C1=NN(c2ccccc2)C(=O)CC1
 : i	-4%
Cn1c(SCC(=O)Nc2ccc(N3CCOCC3)cc2)nnc1-c1ccco1
 : -21%	-5%
Cc1cc(C)c(S(=O)(=O)N(C)CC(=O)N2CCCC2)c(C)c1
 : -16%	-8%
O=C(Nc1ccccc1)c1sc(Cl)nc1-c1ccccc1
 : -19%	-17%
CCCNC(=O)C1(C)CCN(Cc2ccc(-c3ccccn3)cc2)C1 (stereo not given)
 : 36%[activator]	-2%
O=C(Cn1cnc(Cl)c1Cl)c1ccc(F)cc1
 : i	-6%
CC1(C)OC(=O)C2=C(C[C@@H](C3CC3)O[C@H]2CCc2cccc(Cl)c2)O1
 : -11%	-2%
Cc1cc(C)nc(NC2=NCCN2C(=O)NC2CCCCC2)n1
 : -21%	-14%
Cc1ccc(-n2c(Cc3ccccc3)nnc2SCc2nc(-c3cccs3)no2)cc1
 : 2%	10%
CC(NC(=O)CCSCCC(=O)NC(C)c1ccccc1)c1ccccc1 (stereo not given)
 : -8%	-24%
COc1ccc(CCNC(=O)c2ccccc2NC(=O)CN2CCN(c3ccccc3O)CC2)cc1
 : -13%	-30%
O=S(=O)(NCC(O)c1ccccc1)c1ccc(-c2ccccn2)s1 (stereo not given)
 : -13%[7.34 µM]	-1%[7.34 µM]
CCOC(=O)CNC(=S)N(CCCN1CCCCC1)Cc1cccs1
 : i	-16%
CC1(C(=O)O)CCC(C(=O)Nc2cccc(F)c2)C1(C)C (stereo not given)
 : i	-13%
Cc1ccc(CNC(=O)Cc2ccc(NC3=NC4CS(=O)(=O)CC4S3)cc2)cc1 (stereo not given)
 : -11%	11%
COc1ccc(CCn2c(=S)[nH]c(=O)c3c(C)cc(C)nc32)cc1OC
 : -2%	-8%
NC(=O)CSc1nnc2ccc(-c3ccc(F)cc3)nn12
 : -9%	-12%
Cc1cccc(Cn2c(CNS(=O)(=O)c3ccc(Cl)s3)nc3cccnc32)c1
 : -16%	-17%
O=C(Nc1ccc2oc(-c3cccnc3)nc2c1)c1ccc(Br)cc1
 : -11%	-4%
COc1ccc(C)cc1NC(=O)NCc1cccn1Cc1ccccc1
 : -14%	-1%
CCCC[C@@H]1Cc2[nH][nH]c(=O)c2[C@H](c2cccc3ccccc23)O1
 : -12%	-3%
CCn1nnc2cc(C(=O)Nc3ccc(C(=O)OC(C)C)cc3)ccc21
 : -15%	-6%
Cc1nc(CSc2nnc(N)s2)cs1
 : i	0%
COc1ccc(N2CCN(C(=O)c3ccc(N(C)S(=O)(=O)c4ccc(OC)cc4)cc3)CC2)cc1
 : -18%	-11%
CCCCNC(=S)NC1CCCC1
 : -22%	-20%
COc1ccc(C(O)c2ncc(-c3ccc4ccccc4c3)[nH]2)cc1 (stereo not given)
 : -6%	-27%
COc1cc(OC)cc(C(=O)n2cnnc2N)c1
 : -10%	2%
CCOc1ccc(CNC(=O)CN2C(=O)CSc3ccc(S(=O)(=O)N4CCOCC4)cc32)cc1
 : i	-19%

3 entries from above in a different format:
Compound: CC1(C)OC(=O)C2=C(C[C@@H](C3CC3)O[C@H]2CCc2cccc(Cl)c2)O1
  VACV mCherry inh = -11%	Vaccinia Venus = -2%

Compound: Cc1ccc(-n2c(Cc3ccccc3)nnc2SCc2nc(-c3cccs3)no2)cc1
  VACV mCherry inh = 2%	Vaccinia Venus = 10%

Compound: O=C(Nc1ccccc1)c1sc(Cl)nc1-c1ccccc1
  VACV mCherry inh = -19%	Vaccinia Venus = -17%

Other results
Each structure is followed by: VACV mCherry inh	Vaccinia Venus
Cc1ccc(OC(=O)C23CC4CC(CC(C4)C2)C3)c(C)n1
 : i	-14%
CC(=O)c1ccc(NC(=O)CSc2nc3nn(-c4ccccc4)c(=O)c-3c3n2CCCCC3)cc1
 : -19%	-3%
Cc1nnc2sc(SCc3ccc(Br)cc3)nn2c1=O
 : i	-6%
Cc1ccccc1-n1c(O)c(/C=C2/C(c3ccccc3)=Nc3ccccc32)c(=O)[nH]c1=O
 : ?	-9%
COc1ccc(Cl)cc1-c1cc(C(=O)N[C@H](C)c2ccccc2)[nH]n1
 : ?	-27%
CCOC(=O)N/N=C\c1ccc(-c2cc(Cl)ccc2Cl)o1
 : -16%	-7%
Cc1ccc(NC(=O)CN2C(=O)NC(Cc3ccccc3)C2=O)cc1 (stereo not given)
 : -17%	-8%
O=C(NCC(=O)N1CCN(S(=O)(=O)c2ccc3c(c2)OCCO3)CC1)c1ccccc1Cl
 : -14%	-10%
CC(=O)c1ccc(NC(=O)Cn2nc(C(F)(F)F)c3c2CCCC3)cc1
 : -9%	-9%
Fc1ccccc1/C=N/Nc1nn[nH]n1
 : -12%	-9%
O=C(CCNC(=O)N1CC(=O)Nc2ccccc21)NCc1ccccc1
 : -7%	-5%
NC(=S)Nc1cc(Cl)cc(Cl)c1
 : ?	?
CC(=O)Nc1cccc(Oc2nc(NCCN(C)C)nc3ccsc23)c1
 : i	-4%
CC(C)(C)NC(=O)C(c1cccs1)N(CC1CCCO1)C(=O)Cn1nnc(-c2cccs2)n1 (stereo not given)
 : -18%	-1%
O=C(CCCc1c[nH]c2ccccc12)NCc1ccccc1F
 : ?	-18%
COC(=O)c1sccc1NC(=S)N1CCCCC1
 : -11%	-9%
Cc1ccccc1Cn1c2ccccc2c2cnn(CC(=O)NCCCc3ccccc3)c(=O)c21
 : -19%	-4%
CC(C)(C)C(=O)N1CCN(c2nc3ccccc3o2)CC1
 : -10%	-13%
